Compound activity: PubChem BioAssay, several laboratories
Beta2AR agonist – human beta-2 adrenergic receptor agonism by FAP; response, % (test concentration not listed); 340,000 tested, 0.43% active; Am2.2-beta2AR cells, FAP receptor internalization, flow cytometry; reference of the scale not given here; P07550;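 active = response above a set limit, near 3 SD of response in nonfluorescent compounds, cut at about 42% in these data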;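 also: stock transfer was 100 nL into about 11 µL; a reference agonist was the positive control; negative values mostly stem from fluorescent compounds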
Target sequence (P07550 whole entry, looked up): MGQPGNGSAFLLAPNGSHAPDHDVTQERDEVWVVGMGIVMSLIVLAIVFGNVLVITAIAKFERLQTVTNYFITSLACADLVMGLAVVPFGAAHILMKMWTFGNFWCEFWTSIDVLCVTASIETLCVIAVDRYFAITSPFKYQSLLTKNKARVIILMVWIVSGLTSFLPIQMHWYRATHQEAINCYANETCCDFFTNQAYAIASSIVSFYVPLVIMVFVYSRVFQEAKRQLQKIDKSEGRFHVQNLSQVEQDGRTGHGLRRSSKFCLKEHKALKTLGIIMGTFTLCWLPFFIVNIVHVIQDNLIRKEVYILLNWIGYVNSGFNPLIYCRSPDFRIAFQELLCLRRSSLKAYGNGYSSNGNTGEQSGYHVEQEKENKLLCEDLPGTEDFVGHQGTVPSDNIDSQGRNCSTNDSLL
FGF22 binding – shifts melting point of recombinant human FGF22 | calls only at 9.99 µM | 340,000 tested, 1.5% active | recombinant FGF22 thermal shift, SYPRO orange fluorescence; percent of sucrose octasulfate shift, DMSO zero | Q9HCT0;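 active = melting point raised past a set limit in the mean and every replicate; three in four hits are not shown here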
Target sequence (Q9HCT0 whole entry, looked up): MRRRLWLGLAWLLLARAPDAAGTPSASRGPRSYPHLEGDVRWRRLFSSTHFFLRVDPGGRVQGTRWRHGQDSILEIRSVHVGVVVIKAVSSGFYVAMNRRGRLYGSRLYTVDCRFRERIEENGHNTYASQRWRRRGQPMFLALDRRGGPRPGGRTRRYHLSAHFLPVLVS
ALR H2O2 inh – inhibitors of human sulfhydryl oxidase ALR; 290,000 tested, 3.8% active; inhibition, % (no concentration beside the values); purified ALR, DTT oxidation, H2O2 HRP-luminol luminescence; AID 485317;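 active = mean and each replicate at 75% or more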;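 also: stock transfer was 7.5 nL into about 7.5 µL; 0% = neutral wells and 100% = wells with inactivated enzyme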
Target sequence (P55789 whole entry, looked up): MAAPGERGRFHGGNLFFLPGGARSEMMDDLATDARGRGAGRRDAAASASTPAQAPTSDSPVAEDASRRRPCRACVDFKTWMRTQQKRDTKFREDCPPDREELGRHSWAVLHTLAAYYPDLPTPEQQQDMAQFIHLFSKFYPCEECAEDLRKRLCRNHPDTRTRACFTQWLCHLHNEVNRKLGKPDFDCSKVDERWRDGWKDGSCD
rRNA inh HTS – selective bacterial rRNA inhibition in E. coli. E. coli WT GFP vs humanized-ribosome RFP mutants, fluorescence, 24 h; hits give low values; DMSO median 0, no signal -100. GFP signal change (wild-type ribosome), % (no concentration beside the values). 350,000 tested, 1.6% active;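 active = significant combined selectivity score with lowered wild-type GFP, culture density cut under 30%, mutant RFP and density less affected; inactive = any of these conditions unmet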; also: one replicate is shown; some compounds called inactive have numbers as strong as hits
UCH37 DUB inh – inhibitors of human deubiquitinating enzyme UCH37. inhibition, % (test concentration not listed). 330,000 tested, 0.33% active. purified proteasome/UCH37, Ub-AMC cleavage fluorescence;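 active = mean of two replicates above 20%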;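 also: 0% = compound-free wells with enzyme and 100% = wells lacking proteasome; stock transfer was 100 nL into about 20 µL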
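Material: Human UCH37 enzyme supplied as purified proteasome complex | Schedule: 30 min preincubation with enzyme, 25 min cleavage at room temperature | Detection: AMC fluorescence 355/460 nm | Measure: % inhibition of Ub-AMC cleavage fluorescence | Controls: Wells without proteasome as full block, compound-free enzyme plus substrate as uninhibited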
E coli growth – blocks Escherichia coli growth; 330,000 tested, 0.21% active; OD600 absorbance (test concentration not listed); OD600, 23 h; hits give low values; AID 1053175;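 active = OD600 absorbance below the run mean of sample wells minus 3.6 SD, in any replicate, cut at about 0.56 in these data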;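 also: stock transfer was 300 nL into about 60 µL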
HNF4A DNA FP – change in binding of human HNF4 alpha to DNA. P41235. HNF4a-FITC DNA binding, fluorescence polarization, 1 h. activity change, % at 10 µM. 360,000 tested, 0.3% active. AID 1224865; in the data active = activity change above about 30%, passing the limit was not always enough;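 also: controls were the assay level and a saturating level of protein; the project sought stronger binding though the title names inhibitors; some compounds called inactive have numbers as strong as hits; positive values seem to mean higher polarization but the record does not say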
rRNA inh HTS OD600 – second read-out of rRNA inh HTS, no call of its own (marks repeat the call); OD600 change, %; measured here: OD600 growth;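 optical density of the mix in the first replicate; 0 = DMSO median and -100 = no signal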
rRNA inh HTS RFP – second read-out of rRNA inh HTS, no call of its own (marks repeat the call); RFP signal change, %; measured here: RFP humanized mutant strains;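 first replicate; 0 = DMSO median and -100 = no signal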
* marks the source's active call; other numbers are inactive results; i = inactive; nt = no result given. Only part of the results is shown, so the mix of outcomes need not match the whole.

Beta2AR agonist	FGF22 binding	ALR H2O2 inh	rRNA inh HTS	rRNA inh HTS OD600	rRNA inh HTS RFP	UCH37 DUB inh	E coli growth	HNF4A DNA FP	Structure
-11	nt	-3	nt	nt	nt	2.2	0.7	-1.5	Cc1ccc(Nc2nnc(C(C)(C)C)c(=O)n2N)cc1
-5	i	-13	12	20	-2.1	1.2	0.69	2.4	CCOC(=O)C1=NN(C(C)=O)C2C(=O)N(CC)C(=O)C12 (configuration not stated)
0	i	1	-22*	-13*	-1.0*	6.7	0.7	1.0	O=C1/C(=C/c2cccc(Cl)c2)SC(=S)N1CCC(=O)N1CCCCC1CCO (configuration not stated)
-7	nt	-1	nt	nt	nt	1.8	0.74	1.0	Cc1cc(NC(=O)c2ccc3c(c2)C(=O)N(CCC(C)C)C3=O)no1
5	i	-4	-6	-1	-4.4	3.7	0.65	4.2	CCOc1ccc(NC(=O)CNC(=O)c2cccs2)cc1
21	i	nt	-8	-3	-2.2	4.9	0.71	4.4	CC(=O)c1c(C)nn(CC(O)COc2ccc3ccccc3c2)c1C (configuration not stated)
-1	nt	nt	0	6	-1.7	6.2	0.71	-1.0	CCOc1ccc(NC(=O)c2cccc(NC(C)=O)c2)cc1S(=O)(=O)N1CCCC1
13	i	nt	-1	4	1.9	8.9	0.69	2.7	CCN(CC)c1ccc(-c2nnc(SCC(=O)N(CCOC)c3c(N)n(CC(C)C)c(=O)[nH]c3=O)o2)cc1
-1	nt	7	nt	nt	nt	2.3	0.68	0.8	CN1CCN(c2ccccc2NC(=O)c2cc3ccccc3o2)CC1
5	i	-10	6	8	-0.3	0.3	0.76	-2.9	CCC1CCCCN1Cc1nc2c(c(=O)n(C)c(=O)n2C)n1CCCc1ccccc1 (configuration not stated)
-1	nt	nt	nt	nt	nt	2.6	0.7	2.1	CCC(=O)Nc1ccc(NC(=S)NC(=O)c2oc3ccccc3c2C)cc1
-4	i	43	-4	2	2.3	1.0	0.73	-5.9	O=C(CSc1nnc(NC(=O)c2c(F)cccc2Cl)s1)Nc1ccccc1F
1	i	-4	9	8	3.4	3.3	0.59	-0.6	O=C(Nc1nccs1)c1ccc(Cl)cc1[N+](=O)[O-]
-5	i	-6	15	7	2.3	4.2	nt	0.6	CCCCN1CC[C@H]2C=CC[C@@H](C(=O)Nc3nccs3)[C@H]2C1=O
1	i	nt	7	9	-1.1	1.3	0.71	0.0	CN1CCN(C(=O)c2cccc(S(=O)(=O)N3CCCC3)c2)CC1
-17	i	-2	-1	-6	-1.0	3.8	0.64	1.6	Cc1nc(SCC(=O)NCC2CCCO2)c2oc3ccccc3c2n1 (configuration not stated)
10	i	nt	-23	-21	-1.1	1.6	0.67	-5.3	COc1ccc(CN2CCN(C(=O)c3ccc(S(=O)(=O)N4CCCCCC4)cc3)CC2)cc1F
-1	i	-1	-21	-38	-13	-1.3	0.68	1.3	O=C(O)c1ccc(CN(Cc2ccccc2)S(=O)(=O)c2ccc(Cl)cc2)cc1
1	nt	-10	nt	nt	nt	0.1	0.69	-0.9	CCOc1ccc(OCC)c(NC(=O)CCCN2C(=O)c3cccnc3C2=O)c1
2	i	-38	5	6	2.3	-93	0.69	5.2	CCN(CC(=O)NC(C)(C)C)C(=O)CN1c2cccc3cccc(c23)S1(=O)=O
-1	i	nt	-3	2	-0.4	3.3	0.7	1.1	O=C(c1ccccc1F)N1CCCC(C(=O)N2CCc3ccccc3C2)C1 (configuration not stated)
-3	i	nt	6	5	4.3	1.2	0.66	-2.2	COC(=O)C1CC2=C(CC(C)(C)CC2=O)N(c2ccccc2)C1=O (configuration not stated)
-2	nt	-9	nt	nt	nt	0.3	0.69	1.0	O=C(Cc1ccccc1)NCCSCc1ccc(Cl)cc1
-4	i	2	-3	2	-1.6	-24	0.71	-0.2	CCOC(=O)Nc1ccc2c(CN(C)Cc3ccc(F)cc3)cc(=O)oc2c1

Six of these compounds, set out differently.
SMILES | Beta2AR agonist | FGF22 binding | ALR H2O2 inh | rRNA inh HTS | rRNA inh HTS OD600 | rRNA inh HTS RFP | UCH37 DUB inh | E coli growth | HNF4A DNA FP
CCOc1ccc(NC(=O)CNC(=O)c2cccs2)cc1 | 5 | i | -4 | -6 | -1 | -4.4 | 3.7 | 0.65 | 4.2
O=C(O)c1ccc(CN(Cc2ccccc2)S(=O)(=O)c2ccc(Cl)cc2)cc1 | -1 | i | -1 | -21 | -38 | -13 | -1.3 | 0.68 | 1.3
CCOc1ccc(OCC)c(NC(=O)CCCN2C(=O)c3cccnc3C2=O)c1 | 1 | nt | -10 | nt | nt | nt | 0.1 | 0.69 | -0.9
CCC1CCCCN1Cc1nc2c(c(=O)n(C)c(=O)n2C)n1CCCc1ccccc1 (configuration not stated) | 5 | i | -10 | 6 | 8 | -0.3 | 0.3 | 0.76 | -2.9
O=C(Cc1ccccc1)NCCSCc1ccc(Cl)cc1 | -2 | nt | -9 | nt | nt | nt | 0.3 | 0.69 | 1.0
CCOc1ccc(NC(=O)c2cccc(NC(C)=O)c2)cc1S(=O)(=O)N1CCCC1 | -1 | nt | nt | 0 | 6 | -1.7 | 6.2 | 0.71 | -1.0

The main list resumes with the 2 entries that preceded the break.
Beta2AR agonist	FGF22 binding	ALR H2O2 inh	rRNA inh HTS	rRNA inh HTS OD600	rRNA inh HTS RFP	UCH37 DUB inh	E coli growth	HNF4A DNA FP	Structure
-2	nt	-9	nt	nt	nt	0.3	0.69	1.0	O=C(Cc1ccccc1)NCCSCc1ccc(Cl)cc1
-4	i	2	-3	2	-1.6	-24	0.71	-0.2	CCOC(=O)Nc1ccc2c(CN(C)Cc3ccc(F)cc3)cc(=O)oc2c1
4	nt	-3	nt	nt	nt	2.4	0.78	0.4	CCOC(=O)c1cnn(-c2ccccc2)c1-n1cccc1C(=O)C(=O)Nc1ccc(F)cc1
0	nt	-2	nt	nt	nt	2.7	0.7	0.6	O=C(COC(=O)CCNS(=O)(=O)c1cccc(C(F)(F)F)c1)NC(=O)NC1CCCCC1
-2	i	2	6	11	0.3	4.3	0.64	1.4	CCOc1ccc(C(=O)NCCc2cnc[nH]2)cc1OCC
-8	i	-1	5	0	3.6	-0.1	0.68	0.1	COc1ccc(-c2nnn(CC(=O)N(CCCN3CCOCC3)C(C(=O)NC3CCCC3)c3ccco3)n2)cc1 (configuration not stated)
-1	i	2	2	-1	-0.7	10	0.68	-1.1	COC(=O)c1ccc(C(=O)N=c2sccn2C)cc1
-1	i	-1	8	6	-1.5	-0.1	0.66	0.5	O=C(NCc1ccco1)c1nn2cccnc2c1Cl
-6	nt	3	nt	nt	nt	5.9	0.71	1.7	CC1=NN(c2ccccc2)C(=O)/C1=C/c1cccs1
0	i	nt	2	10	5.0	3.6	0.66	10	CC(C)[C@H](NC(=O)c1ccc(Br)cc1)C(=O)NC1CCCCC1
14	i	nt	15	19	-1.6	6.5	0.73	-2.6	COc1ccc(C)cc1N=Nc1ccc(O)c2ncccc12
1	i	0	12	6	1.6	-15	0.74	0.3	O=C(CSc1nnc(NC(=O)c2cccc(F)c2)s1)NCc1ccco1
-3	i	nt	0	4	-0.3	-1.4	0.66	2.2	Cc1nc(N)nc(N(C)c2ccccc2)c1Br
-8	nt	nt	nt	nt	nt	5.2	0.69	-3.3	CCN(CC)C(=O)CSc1nnc(-c2cnccn2)n1-c1ccccc1
-1	i	-2	6	-3	2.8	4.1	0.66	-1.9	O=C(NCc1ccc(Cl)s1)C1CCC(=O)N(CCc2ccccn2)C1 (configuration not stated)
9	i	57	-2	-5	-2.0	-308	0.67	-0.7	Cc1ccc(-n2nc(C)c3c2NC2=C(C(=O)CC(C)(C)C2)C3c2ccccc2OCC(=O)O)cc1 (configuration not stated)
nt	i	nt	-10	13	0.8	nt	nt	-2.9	C(=NN=Cc1c[nH]c2ccccc12)c1c[nH]c2ccccc12
-9	nt	-9	nt	nt	nt	4.5	0.67	0.6	CCC(Sc1nc2cc3c(cc2c(=O)n1Cc1ccco1)OCO3)C(=O)Nc1cccc(OC)c1 (configuration not stated)
-11	i	nt	4	-3	0.0	2.7	0.69	-0.8	CC(=O)c1cccc(CN2CCCC(N3CCN(c4ccccc4F)CC3)C2)c1 (configuration not stated)
-1	nt	-8	nt	nt	nt	0.8	0.74	0.8	O=C(CCC(=O)OCC(=O)c1ccc(Cl)cc1Cl)Nc1cccc2cccnc12
-18	nt	nt	nt	nt	nt	-66	0.72	1.2	OC1CCN(c2c3c(nc4cc(-c5ccc(F)cc5)nn24)CCC3)CC1
13	i	nt	0	6	3.3	-23	0.69	-2.3	O=C(O)c1nc(NCCc2ccccc2)ncc1Cl
-18	i	1	-14	-11	-4.3	1.7	0.67	-0.9	N#Cc1ncn(-c2ccc(Oc3ccccc3)cc2)c1N
0	i	-6	11	9	1.7	3.7	0.72	-4.3	O=[N+]([O-])c1ccc(OCCCCCN2CCOCC2)cc1
-7	i	nt	-2	-5	1.7	5.5	0.67	1.4	CCNC(=S)NC(=NCc1cccnc1)Nc1nc(C)cc(C)n1
4	i	-2	3	7	0.6	0.5	0.58	-1.2	COc1ccccc1C(CNC(=O)C(CCSC)NS(=O)(=O)c1ccccc1F)N1CCCC1 (configuration not stated)
3	i	nt	1	-5	-1.2	0.2	0.68	1.9	S=C(c1c[nH]c2ccccc12)N1CCCC1
-2	nt	2	nt	nt	nt	-323	0.69	-3.9	O=C(Nc1ncc2c(n1)-c1ccccc1OC2)c1ccccc1Cl
-6	i	nt	9	14	-2.9	4.5	0.69	-1.5	CNC(=O)c1ccc(S(=O)(=O)c2ccc(Cl)cc2)c(NC(C)=O)c1
-8	i	50	2	1	-3.0	-1.4	0.68	-1.4	COc1ccccc1N1CCN(C(=O)C(C)NC(=O)c2ccco2)CC1 (configuration not stated)
-4	nt	-20	nt	nt	nt	6.4	0.71	-0.9	Cc1ccc([N+](=O)[O-])cc1N=C(c1cccc([N+](=O)[O-])c1)N1CCOCC1
1	i	nt	-25	-46	3.8	4.8	0.71	1.5	COc1cccc(CN(C)S(=O)(=O)c2ccccc2Br)c1
-15	i	nt	4	4	-5.8	2.1	0.69	0.4	CCCOc1ccc(C(=O)CCC(=O)OCC(=O)N(CC)c2c(N)n(Cc3ccccc3)c(=O)[nH]c2=O)cc1
3	nt	-7	nt	nt	nt	-130	0.7	25	CSc1nc(NCc2ccccc2)c2c3c(sc2n1)CN(C)CC3
